Mtb MenB inh – M. tuberculosis MenB inhibitors, primary screen, biochemical, absorbance. 1,4-dihydroxy-2-naphthoyl-CoA synthase (Mycobacterium tuberculosis (strain ATCC 25618 / …. MenB enzyme assay, absorbance read-out; some hits fall short of the stated cut. inhibition, %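 (about 12 µg/mL by stock and volumes)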. actives 0.43% (n = 100,000). AID 540299, 2011;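 active = mean of two replicates above 30%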;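 also: 0% = no compound and 100% = wells with inactive enzyme; the first replicate is given; strong numbers were not always called active; inactives centre near -10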
Target sequence (P9WNP5 whole entry, looked up): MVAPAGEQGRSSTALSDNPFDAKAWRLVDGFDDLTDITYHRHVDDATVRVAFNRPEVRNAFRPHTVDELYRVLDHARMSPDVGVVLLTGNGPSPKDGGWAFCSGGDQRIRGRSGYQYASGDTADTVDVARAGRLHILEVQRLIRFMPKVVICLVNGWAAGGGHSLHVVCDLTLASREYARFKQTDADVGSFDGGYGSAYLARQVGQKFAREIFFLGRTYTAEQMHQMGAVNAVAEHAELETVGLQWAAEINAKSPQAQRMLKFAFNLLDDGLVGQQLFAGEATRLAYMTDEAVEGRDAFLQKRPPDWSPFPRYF
MbtI inh – MbtI salicylate synthase inhibitors, primary screen, biochemical, fluorescence intensity; purified MbtI enzyme, fluorescence intensity read-out; inhibition, %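 (about 17 µg/mL by stock and volumes)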; actives 0.89% (n = 100,000); AID 493033, 2011;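 active = above 50% in both replicates, above 80% if mildly self-fluorescent; inactive = the rest, strongly fluorescent compounds included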;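 also: 0% = mean of negative and 100% = mean of positive controls; one replicate is shown; some compounds called inactive have numbers as strong as hits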
Target sequence (P9WFX0 whole entry, looked up): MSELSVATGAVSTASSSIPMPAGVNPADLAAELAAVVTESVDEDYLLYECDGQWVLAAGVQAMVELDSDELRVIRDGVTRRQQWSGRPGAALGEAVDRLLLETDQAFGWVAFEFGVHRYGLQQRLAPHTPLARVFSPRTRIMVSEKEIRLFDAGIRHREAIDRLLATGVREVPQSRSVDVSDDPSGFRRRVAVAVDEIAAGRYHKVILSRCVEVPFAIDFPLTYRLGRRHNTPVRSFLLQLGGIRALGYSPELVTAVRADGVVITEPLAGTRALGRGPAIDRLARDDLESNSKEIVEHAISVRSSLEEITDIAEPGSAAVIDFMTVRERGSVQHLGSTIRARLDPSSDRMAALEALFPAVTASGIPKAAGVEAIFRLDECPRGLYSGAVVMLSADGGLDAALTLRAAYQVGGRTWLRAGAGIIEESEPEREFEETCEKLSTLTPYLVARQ
Polio RdRp inh – poliovirus RdRp elongation inhibitors, primary screen, biochemical, fluorescence polarization, total intensity; % elongation, % (compound at 16.7 µg/mL); AID 588519, 2011; poliovirus polymerase elongation; active compounds read low; actives 0.66% (n = 150,000); Genome polyprotein (Poliovirus type 1 (strain Mahoney)), P03300; in the data active = % elongation below about 90%; also: some results filed as inactive read as strong as hits
Polio RdRp inh intensity – second read-out of Polio RdRp inh, no call of its own (marks repeat the call); % elongation; measured here: total intensity read-out; formula for this scale not given here;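 total fluorescence in place of polarization; lower means less elongation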
Numbers without * were called inactive; x = not tested or not shown.

Molecule	Mtb MenB inh	MbtI inh	Polio RdRp inh	Polio RdRp inh intensity
CC(C)(C)c1ccc(C(=O)NCc2nnc(SCC(=O)Nc3ccc4c(c3)OCO4)o2)cc1	-3	9	103	105
O=C(CN1CCOCC1)NN1CC(=O)N(c2ccccc2)CC1=O	-8	-1	100	102
COc1cccc(NCCC#N)c1	-26	-3	108	100
CC(C)N(C(=O)COc1ncnc2ccccc12)c1ccccc1	x	-8	100	106
CCOc1ccc(-n2cc(-c3ccccc3)c3c(NC(C)C)ncnc32)cc1	-3	-1	106	105
Cc1nc(C(F)(F)F)ccc1-c1nnc(SCc2ccc(OC(F)(F)F)cc2)o1	-22	4	101	100
CC(=O)Nc1ccc(-c2nn3c(C)nnc3s2)cc1	-26	90	103	102
O=C(CCCSc1nnc(Nc2ccccc2F)s1)N1CCOCC1	-29	12	105	107
CC1CCN(S(=O)(=O)c2ccc(CN3C(=O)c4cccnc4C3=O)cc2)CC1	0	-17	102	102
O=C(Cn1c(COc2ccc(Cl)cc2)nc2ccccc21)NCc1ccco1	-17	-10	104	109
CC1=C2C(=CO[C@H](C)[C@H]2C)C(=O)C(C(=O)O)=C1O	3	-11	98	98
CCCNC(=S)N1CCN(S(=O)(=O)c2ccc(OC)c(OC)c2)CC1	-13	-13	102	100
CC(Sc1ccccc1)C(=O)N/N=C/c1cccnc1 (configuration not stated)	28	12	103	104
CC1CCCC(NC(=O)c2ccc3c(SCC(=O)O)c4c(nc3c2)CCC4)C1C (configuration not stated)	-11	1	100	106
CC(C)(C)P(=NC(=S)Nc1ccccc1)(N1CCOCC1)N1CCOCC1	-46	1	104	100
CN1C/C(=C\c2ccc(O)cc2)C(=O)/C(=C/c2ccc(O)cc2)C1	x	0	102	107
O=C(Nc1nnc(C2CC2)o1)c1ccc(S(=O)(=O)N2CCCCC2)cc1	-20	3	103	102
CCOC(=O)C(C)Sc1nc(-c2ccc(OC)cc2)nc2c1c(=O)n(C)c(=O)n2C (configuration not stated)	-16	-15	103	105
CC(=O)Nc1ccc(S(=O)(=O)N2CCN(C/C=C/c3ccccc3)CC2)cc1	-36	-10	100	103
CC1=CCC2(CC1)COC(C)(CC(=O)NN)OC2 (configuration not stated)	-46	10	100	88
O=C(CSc1nnnn1Cc1ccccc1)c1ccccc1	-28	-2	101	100
OCCSc1nnc(-c2cc3ccccc3o2)n1-c1ccccc1	-12	-129	102	104
Cc1ccc(NC(=O)N2CCN(c3cnccn3)CC2)cc1	-8	-10	102	104
CCCc1cc(=O)[nH]c(/N=C(/NC(=O)c2ccccc2)Nc2ccccc2)n1	-1	-15	101	104
Cc1cccc(-n2c(N)cc(=O)nc2SC(C)C(=O)Nc2ccccc2)c1 (configuration not stated)	0	-2	100	102
Cc1nnsc1-c1nnc(SCC(=O)N(c2ccccc2)C2CCCCC2)n1C1CC1	6	-3	103	103
O=C(NOC(=O)c1ccccc1)c1ccccc1	19	6	99	100
CC(C)CCN1C(=O)c2ccc(-c3nc4ccccc4o3)cc2C1=O	-29	x	100	102
CC1(C)CC(=O)c2cc(C(=O)NC(C)(C)C)c(=O)n(-c3ccccc3)c2C1	-6	5	103	103
O=C(CN1CSCC1=O)Nc1nc(SCc2ccccc2)ns1	-12	0	120	124
NC[C@@H]1CCCN2CCCC[C@H]12	-12	x	105	107
Cc1ccc(S(=O)(=O)N(CC(=O)NC2CC2)C2CCCCC2)cc1	-9	-10	103	102
N/C(CN1CCSCC1)=N\OCc1c(Cl)cccc1Cl	1	-8	102	99
C/C(N)=C(/C#N)C(=O)CSc1nnc(C(F)(F)F)n1N	-18	1	104	110
NC(=S)Cc1nc2ccccc2[nH]1	-80	59	129	165
O=C(O)c1cccc(NS(=O)(=O)c2cc3c4c(cccc4c2)C(=O)NC3=O)c1	-59	2	102	103
O=C1Nc2ccccc2/C1=N/N1C(=O)CNC1=O	-56	x	105	109
FC(F)(F)c1cccc(-c2ccc(-c3nn4c(-c5ccco5)nnc4s3)o2)c1	-18	-3	102	107
Cc1cc(=O)n2[nH]c(N3C(=O)c4ccccc4C3=O)nc2n1	-14	-7	103	96
C=CCN(CC=C)S(=O)(=O)c1ccc2nc(NC(=O)C(C)C)sc2c1	-4	-6	102	100
O=C(CSc1nccc(=O)[nH]1)c1ccc(Br)cc1	-12	-10	101	103
COC1=C(C2(O)CCCc3c2no[n+]3[O-])CCc2c1no[n+]2[O-] (configuration not stated)	21	12	99	97
O=C(CSC1CCCCC1)c1ccccc1F	x	7	99	96
CCc1ccc(NC(=O)N2CCSc3ccccc32)cc1	-6	-10	102	104
COc1ccc2nc(NNC(=O)C3COc4ccccc4O3)sc2c1 (configuration not stated)	-35	12	100	105
COC(=O)CSc1nnc(CNC(=O)c2ccccc2OC)n1C	5	4	100	103
COc1cccc(CN(C)C(=O)c2cc(C)oc2C)c1OC	6	13	97	104
Cc1ccc(C(=O)OC(C)C(=O)NC2CCCC2)c(C)c1 (configuration not stated)	-17	2	98	103
Cc1ccc(Cc2cnc(N)s2)o1	x	0	102	109
O=C(OCc1ncc(-c2ccccc2)o1)c1cc(=O)[nH]c2ccccc12	-25	32	101	103
COc1ccccc1OCCN1CCOCC1	-14	-18	100	102
C(=Nc1ccccc1)c1ccc(-c2cccs2)s1	-3	116	100	101
N#Cc1ccccc1NC(=O)CN1CCN(S(=O)(=O)c2ccc(Br)s2)CC1	-13	6	102	105
O=C(CC1(C(F)(F)F)NCCN1)c1ccco1	-15	-4	100	104
O=C(Cc1nc2ccccc2[nH]1)NCc1ccc(Cl)cc1	x	-12	102	108
CC(=O)NC(NCCC12CC3CC(CC(C3)C1)C2)(C(F)(F)F)C(F)(F)F	2	x	103	110
C(=N\n1cnnc1)/c1nc2ccccc2[nH]1	x	101	103	109
CCN(CC)c1ccc(NC(C)C(=O)Nc2ccc(C)cc2)cc1 (configuration not stated)	x	-5	103	101
O=C(Cc1ccccc1)Nc1ccccc1C(F)(F)F	-16	x	109	108
N#CC(=C1CCCCC1)c1nc2ccccc2s1	x	4	101	113

Compounds from the list above that contain an aryl methoxy group, in the order listed:
Molecule	Mtb MenB inh	MbtI inh	Polio RdRp inh	Polio RdRp inh intensity
COc1cccc(NCCC#N)c1	-26	-3	108	100
CCCNC(=S)N1CCN(S(=O)(=O)c2ccc(OC)c(OC)c2)CC1	-13	-13	102	100
CCOC(=O)C(C)Sc1nc(-c2ccc(OC)cc2)nc2c1c(=O)n(C)c(=O)n2C (configuration not stated)	-16	-15	103	105
COc1ccc2nc(NNC(=O)C3COc4ccccc4O3)sc2c1 (configuration not stated)	-35	12	100	105
COC(=O)CSc1nnc(CNC(=O)c2ccccc2OC)n1C	5	4	100	103
COc1cccc(CN(C)C(=O)c2cc(C)oc2C)c1OC	6	13	97	104
COc1ccccc1OCCN1CCOCC1	-14	-18	100	102

Next results.
Molecule	Mtb MenB inh	MbtI inh	Polio RdRp inh	Polio RdRp inh intensity
CCc1c(C)nc(SCC(=O)N(C(C)C)C(C)C)[nH]c1=O	31	7	100	103
C=CCN1C(=O)/C(=C/N(C(C)=O)c2ccccc2)SC1=S	7	18	103	103
COc1ccc(C(=O)Nc2ccc(-c3n[nH]c(=S)o3)cc2)cc1OC	6	62	96	95
NS(=O)(=O)c1ccc(CNC(=O)c2ccccc2C(F)(F)F)cc1	12	-5	99	105
CCC(=O)Nc1cc2ccccc2cc1NC(=O)CC	-37	x	101	109
N#Cc1ccc(COC(=O)c2cc(=O)[nH]c3ccccc23)cc1	5	8	99	99
Fc1ccc(-c2cc(-c3nc4c5ccccc5ncn4n3)[nH]n2)cc1	10	-4	99	101
COc1ccc(-c2noc(CC(=O)NCCCN3C(C)CCCC3C)n2)cc1 (configuration not stated)	-14	-10	104	105
O=C(NC1CCCCNC1=O)c1cnn(-c2ccccc2)c1C(F)(F)F (configuration not stated)	-4	-2	104	102
CCC1=Nc2cc(C(=O)N3CCN(C(=O)c4ccco4)CC3)ccc2Sc2ccccc21	-15	7	103	104
COc1ccc(C(CNC(=O)Cc2cc(OC)c(OC)c(OC)c2)N2CCCC2)cc1 (configuration not stated)	-7	-14	103	110
CC(=O)N(c1ccc(C(F)(F)F)cc1)S(=O)(=O)c1ccc(N2C(=O)CCC2=O)cc1	-3	-16	106	110
Cn1nc(C(C)(C)C)cc1NC(=O)Nc1cccc2ccccc12	3	-17	101	95
c1ccc(Oc2nc(Oc3ccccc3)nc(Oc3ccccc3)n2)cc1	-4	-11	102	111
Cc1ccc(C2C(C(=O)c3ccco3)=C(O)C(=O)N2CCCN(C)C)o1 (configuration not stated)	-56	6	103	102
COc1cccc(OCc2nnc(SCC(=O)NC(C)(C)C)o2)c1	27	-11	102	104
C/C(=N/NC(N)=O)c1ccc2c(c1)Cc1ccccc1-2	-46	18	101	103
Cn1c(-c2ccccc2O)[n+](C)c2ccccc21	x	141	95	94
CC(C)[C@H](NC(=O)c1ccccc1)C(=O)N1CCN(Cc2ccccc2)CC1	0	-4	105	107
CCCCCSc1nc2ccccc2n1Cn1nnc2ccccc2c1=O	-46	-8	101	92
COc1ccc(C2=NOC(CNC(N)=S)C2)cc1 (configuration not stated)	-17	4	99	101
CCC(CC)C(=O)N1CCCN(C(=O)C(CC)CC)CC1	-20	-6	105	101
CCO/C=C(\C#N)c1nc(-c2ccccc2)cs1	-2	6	123	217
Cc1cccc(OC(C)c2nc(-c3ccccc3)no2)c1 (configuration not stated)	4	7	104	99
O=C(NCC(c1cccnc1)N1CCOCC1)Nc1ccccc1 (configuration not stated)	1	-5	101	105
Cc1ccc(/C=N/NC(=O)c2ccc(NS(=O)(=O)c3cccs3)cc2)o1	-3	3	99	103
COc1ccc(CCC(=O)NCCc2cn3ccccc3n2)cc1	-9	104	103	98
NC(=O)Nc1ccc(C(=O)OCc2cc(=O)n3cc(Br)ccc3n2)cc1	-11	-8	103	109
O=C(CC1COc2ccccc2O1)Nc1cccc(C(F)(F)F)c1 (configuration not stated)	2	x	104	112
CCC(C)n1c(C)cc(C(N)=O)c1C (configuration not stated)	-19	-7	106	112
Cc1ccc(C)c(C(=O)Cn2nc(C(=O)O)c3ccccc3c2=O)c1	10	-8	102	106
O=C(CSc1ncccc1C(=O)O)NCCC1=CCCCC1	-13	-7	100	95
CCCCOc1ccc(C2(C)CC(=O)NC2=O)cc1 (configuration not stated)	6	1	102	104
CC1=CC(C)(C)n2c(O)c(N=NC(N)=S)c3cc(C)cc1c32	-39	-5	102	101
C=CCn1cc(/C=N/N2C(=O)C3C4C=CC(C4)C3C2=O)c2ccccc21 (configuration not stated)	8	-10	100	105
Cn1c(C(C#N)C(=O)C(Sc2ccccc2)c2ccccc2)nc2ccccc21 (configuration not stated)	-21	-4	108	109
O=c1sc(N2CCN(c3ccc(Cl)cc3)CC2)nc2ccsc12	-25	6	100	103
COC(=O)c1cc(OC)c(OC)cc1NC(=O)C1CCCCC1	-98	-35	97	89
CC12CC(NC(=S)N1c1ccccc1)c1ccccc1O2 (configuration not stated)	-6	-9	103	107
CN(C)c1ccc(CNc2ncn[nH]2)cc1	-18	-12	102	99
CCc1cc(Br)ccc1NS(=O)(=O)CC	-23	-15	103	105

High-throughput results (PubChem BioAssay)
